Assay outcomes (PubChem BioAssay)
AID504770 – E. coli YBA685 growth inhibition, screen for V. cholerae RctB inhibitors; actives 0.27% (n = 130,000); AID 504770; z-score (concentration not given with the values); E. coli YBA685 rctB-dependent plasmid, OD600 growth, 3 h; active compounds read low;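 active means z-score under -2 on both plates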;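 further: wells of about 30 µL received 100 nL stock; score is relative to mean and SD of the test wells; the first replicate is given; strong numbers were not always called active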
CapD inh – blocks the Bacillus anthracis CapD enzyme; purified CapD enzyme, fluorescence intensity read-out; active compounds read low; some hits fall short of the stated cut; z-score (concentration not given with the values); actives 0.23% (n = 140,000); AID 492967;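 active means z-score under -4 in either of two replicates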;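 further: stock transfer was 100 nL into about 40 µL; score is relative to mean and spread of the plate; one replicate is shown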
* = called active by the depositor; / = no result given.

A first look:
SMILES | AID504770 | CapD inh
Oc1c(Br)cc(Br)cc1C=Nc1ccc(Oc2ccc(Cl)cc2)cc1 | / | -1.1
CCOc1ccc(CN2C(=O)c3ccccc3Sc3ccc(C(=O)N4CCOCC4)cc32)cc1 | -0.7 | -0.29
Nc1c(C(=O)O)nnn1Cc1ccccc1 | 0.05 | 2.1
Cc1ccc(N/C=C2\CCCCC2=O)nc1 | -0.1 | 1.3
CCCC1(CC)NC(=S)N(c2ccccc2)N1 (stereo unspecified) | / | 0.38
COc1cc(/C=N/c2oc(-c3ccccc3)c(-c3ccccc3)c2C#N)ccc1O | / | 3
CCC(Sc1nc2ccccc2o1)C(=O)Nc1cc(C)on1 (stereo unspecified) | / | 0.05
CC(=C\c1ccccc1)/C(C)=N/O | -1.4 | 0.23
O=C(C1CCC(=O)N1CCc1ccccc1)N1CCC2(CC1)OCCO2 (stereo unspecified) | 2.4 | -0.35
O=c1c2sc(=S)n(Cc3ccco3)c2nc(SCc2cc(=O)n3ccccc3n2)n1-c1ccccc1 | / | 0.24
CCCOc1cccc(C2CCCCN(C)C2=O)c1 (stereo unspecified) | 0.2 | 0.24
CCN(CC)c1ccc(C2N(Cc3ccccc3)CCN2Cc2ccccc2)c(O)c1 | / | 28
COc1ccc(C(=O)NC(C)Cc2ccccc2)cc1 (stereo unspecified) | -0.7 | 0.14
c1ccc(-c2nnc(Cc3ccc4c(c3)OCO4)o2)cc1 | 1.2 | 0.59
Cc1cc(C)cc(-n2c(C)cc(/C=C(\C#N)c3ccccc3)c2C)c1 | 0.15 | -0.15
CN1C2CCC1CC(NC(=O)CSc1ccc(Cl)cc1)C2 (stereo unspecified) | 1 | -0.055
COc1cc(SC)ccc1C(=O)OCC(=O)c1ccccc1 | -1.4 | /
Cc1ccccc1OCC(=O)N1CCN(C=O)CC1 | -0.1 | 1.2
COc1ccccc1N1CCN(C2CCN(C3CCCCC3)CC2)CC1 | -1.1 | 0.025
COc1cc(C(N)=O)cc(I)c1OC | -0.4 | -0.04
O=C(CN1CCc2ccccc2C1)NCc1ccco1 | -0.2 | /
CCC1CSC(Nc2c(C)cccc2C)=N1 (stereo unspecified) | 0.3 | 0.16
COCCn1c(C)cc(C2=Nn3c(nnc3-c3ccccc3F)SC2)c1C | -0.55 | /
O=C(CSc1nnc2sc3ccccc3n12)NC(=O)c1ccc(OC(F)F)cc1 | 0.9 | /

The listing, previewed entries included:
SMILES | AID504770 | CapD inh
Oc1c(Br)cc(Br)cc1C=Nc1ccc(Oc2ccc(Cl)cc2)cc1 | / | -1.1
CCOc1ccc(CN2C(=O)c3ccccc3Sc3ccc(C(=O)N4CCOCC4)cc32)cc1 | -0.7 | -0.29
Nc1c(C(=O)O)nnn1Cc1ccccc1 | 0.05 | 2.1
Cc1ccc(N/C=C2\CCCCC2=O)nc1 | -0.1 | 1.3
CCCC1(CC)NC(=S)N(c2ccccc2)N1 (stereo unspecified) | / | 0.38
COc1cc(/C=N/c2oc(-c3ccccc3)c(-c3ccccc3)c2C#N)ccc1O | / | 3
CCC(Sc1nc2ccccc2o1)C(=O)Nc1cc(C)on1 (stereo unspecified) | / | 0.05
CC(=C\c1ccccc1)/C(C)=N/O | -1.4 | 0.23
O=C(C1CCC(=O)N1CCc1ccccc1)N1CCC2(CC1)OCCO2 (stereo unspecified) | 2.4 | -0.35
O=c1c2sc(=S)n(Cc3ccco3)c2nc(SCc2cc(=O)n3ccccc3n2)n1-c1ccccc1 | / | 0.24
CCCOc1cccc(C2CCCCN(C)C2=O)c1 (stereo unspecified) | 0.2 | 0.24
CCN(CC)c1ccc(C2N(Cc3ccccc3)CCN2Cc2ccccc2)c(O)c1 | / | 28
COc1ccc(C(=O)NC(C)Cc2ccccc2)cc1 (stereo unspecified) | -0.7 | 0.14
c1ccc(-c2nnc(Cc3ccc4c(c3)OCO4)o2)cc1 | 1.2 | 0.59
Cc1cc(C)cc(-n2c(C)cc(/C=C(\C#N)c3ccccc3)c2C)c1 | 0.15 | -0.15
CN1C2CCC1CC(NC(=O)CSc1ccc(Cl)cc1)C2 (stereo unspecified) | 1 | -0.055
COc1cc(SC)ccc1C(=O)OCC(=O)c1ccccc1 | -1.4 | /
Cc1ccccc1OCC(=O)N1CCN(C=O)CC1 | -0.1 | 1.2
COc1ccccc1N1CCN(C2CCN(C3CCCCC3)CC2)CC1 | -1.1 | 0.025
COc1cc(C(N)=O)cc(I)c1OC | -0.4 | -0.04
O=C(CN1CCc2ccccc2C1)NCc1ccco1 | -0.2 | /
CCC1CSC(Nc2c(C)cccc2C)=N1 (stereo unspecified) | 0.3 | 0.16
COCCn1c(C)cc(C2=Nn3c(nnc3-c3ccccc3F)SC2)c1C | -0.55 | /
O=C(CSc1nnc2sc3ccccc3n12)NC(=O)c1ccc(OC(F)F)cc1 | 0.9 | /
O=C(NCCN1CCCCC1)Nc1c[nH]c2c(Cl)cccc2c1=O | 0.3 | /
S=c1[nH]nc(CSCc2c(Cl)cccc2Cl)n1-c1ccccc1 | / | -0.035
c1ccc(-c2cnc(SCCN3CCCCC3)nn2)cc1 | -0.35 | /
O=C(Nc1nnc(C2CC2)s1)c1ccccc1 | -0.15 | 0.68
N#Cc1ccc(/C=N/n2c(-c3ccc(OC(F)F)cc3)csc2=NCCN2CCOCC2)cc1 | 0.05 | /
O=C(NN1C(=O)/C(=C/c2cc3c(cc2[N+](=O)[O-])OCO3)SC1=S)c1ccccc1Cl | / | 0.025
COc1ccc(C2CC(C(F)(F)F)n3nc(C(=O)NCCCn4ccnc4)c(Cl)c3N2)cc1OC (stereo unspecified) | / | -0.24
Cc1ccc(C2=Nc3ccccc3N=C(c3cc(C)ccc3O)C2)cc1 | / | -0.7
Cc1nc(N2CCCCCC2)c2ccccc2n1 | -0.8 | /
Cc1ccc(CNC(=O)CC2(CC(=O)O)CCCC2)cc1 | -0.1 | /
CCOC(=O)c1c(-c2ccccc2)oc2cc(CN(C)C)c(O)c(CN(C)C)c12 | 0.85 | /
Cc1cc(=O)nc2c3ccccc3n(C(C)C(=O)N3CCC(C)CC3)n12 (stereo unspecified) | 1.9 | 8.3
Cc1ccc(C)c(N2CCN(C(=O)Cn3c(=O)oc4ccccc43)CC2)c1 | -0.1 | -1.7
O=C1c2cccnc2C(=O)N1Cc1ccc(S(=O)(=O)N2CCOc3ccccc32)cc1 | -0.35 | 0.57
Cc1sc(NC(=O)Cn2c(=O)cnc3ccccc32)c(C#N)c1C | 0.35 | /
CCOC(=O)c1cccc(NC(=O)C(CC(C)C)NC(=O)C2CCCCC2)c1 (stereo unspecified) | -0.8 | 0.12
CCOC(=O)CSc1nnc(CN2C(=O)c3cccc4cccc(c34)C2=O)n1-c1ccccc1 | / | 1.7
CC(CO)(CO)N=Cc1c(O)[nH]c(=O)[nH]c1=O | -0.75 | /
Clc1ccc(-c2nc(CSc3ccccn3)cs2)cc1 | -0.25 | 1.6
COc1ccccc1CN(C)CC(=O)NC1CCCc2ccccc21 (stereo unspecified) | -0.25 | /
Cc1ccccc1NC(=O)C1CC(=O)Nc2nc3ccccc3n21 (stereo unspecified) | 0.35 | -0.24
COCCN=C1NN=C(c2ccc(F)cc2)CS1 | 0.7 | /
CCNc1cc(Nc2ccc(Br)cc2)c([N+](=O)[O-])c2nonc12 | / | -0.54
FC(F)(F)c1cccc(Nc2nc3ccccc3[nH]2)c1 | -0.85 | 1.1
Cc1ccc(-n2c(=O)c3c(C)c(C(=O)N(C)C)sc3n(Cc3ccc(F)cc3Cl)c2=O)cc1C | 0.9 | 0.35
COc1nc(C)nc(NC(=O)NC(=O)c2c(Cl)nc(C)c(Cl)c2C)n1 | / | -0.28

Further records follow:
SMILES | AID504770 | CapD inh
CC(=O)N1CCc2cc(S(=O)(=O)CCC(=O)N(C)c3ccc(C)cc3)ccc21 | 0.25 | 0.65
O=C(CN1C(=O)c2ccccc2C1=O)Nc1ccccc1 | 0.65 | 0.41
CCn1c(CNC(=O)c2ccccc2F)nnc1SCC(=O)Nc1cccc(OC)c1 | -0.6 | 0.33
CCc1nc2c(Cl)cc(Cl)cc2c(=O)o1 | -0.5 | /
O=C1NCCCC1C(=O)N1CCN(C(=O)c2ccco2)CC1 (stereo unspecified) | 1.1 | 0.84
COc1ccc(N2Cc3cccc(C(=O)NCC(OC)OC)c3C2=O)cc1 | 0.2 | -0.08
Cc1cc(C(=O)CCC(=O)NC2CC2)c(C)s1 | 1.4 | /
COc1ccc(C2=N/C(=C/c3cc(OC)c(OC)c(OC)c3)C(=O)O2)cc1Br | / | 0.41
N#CC(C#N)C(C#N)(C#N)CC(=O)C1CC2C=CC1C2 (stereo unspecified) | 0.45 | 28
CCN(CC)C(=O)C1CCCN(S(=O)(=O)c2ccc(OC)c(OC)c2)C1 (stereo unspecified) | 0.3 | /
CC(=O)NN=C1CCCCCCC1 | -0.35 | -0.11
O=C(NCc1ccncc1)c1cc2cccc3c2n(c1=O)CCC3 | / | 15
O=c1[nH]c(=O)n(C2CCCCC2)c(O)c1/C=C1\C=Nc2ccccc21 | 1.6 | -0.91
CCN1C(=O)C2C=CC=CC2NC1=S (stereo unspecified) | -0.7 | /
Cc1ccc(-c2n[nH]c(=O)c3ccccc23)cc1 | 1.1 | 0.57
CCOc1ccc(NC(=O)N(CCN(C)C)C(C)c2cccnc2)cc1 (stereo unspecified) | -0.75 | -0.06
COC(=O)C1=C(C)OC(N)=C(C#N)C1c1ccccc1 (stereo unspecified) | / | -0.84
O=C(N/N=C/C1CC2C=CC1C2)c1ccccc1O (stereo unspecified) | 2.5 | /
CCOc1ccc(S(=O)(=O)Nc2nc3ccccc3nc2Nc2ccccc2)cc1 | -0.85 | -0.88
O=S1(=O)CCC(Sc2c(Cl)cccc2Cl)c2ccsc21 (stereo unspecified) | / | -0.6
Nc1ccc(Cc2ccccc2)cc1 | 0.05 | /
c1ccc(C2CCC(=NN3CCOCC3)CC2)cc1 (stereo unspecified) | 0.3 | /
CCCn1c(CCC(=O)N(C)c2ccccc2)nc2cc(S(=O)(=O)N3CCCC3)ccc21 | -0.1 | /
O=C(CCN1C(=O)c2cccc([N+](=O)[O-])c2C1=O)NCc1ccco1 | / | -0.22
CCOC(=O)CNc1ccc(F)cc1 | / | -0.91

Other structures follow:
Below each SMILES – AID504770 | CapD inh
COC(=O)C(N)CSC1CCCCO1 (stereo unspecified)
→ 0.25 | 0.42
Cc1cnc(=O)[nH]c1SCC(=O)OCc1ccccc1
→ -0.6 | /
N#CCCn1nc(-c2ccccc2)c2ccccc2c1=O
→ -0.65 | /
COc1ccc(-n2nc3cc(C)c(NC(=O)c4sc5ccccc5c4Cl)cc3n2)cc1
→ / | -0.15
O=C(NCCS(=O)(=O)c1ccc(Br)cc1)c1ccccc1
→ -0.75 | 0.6
COc1ccc(C2NC(CC(C)C)(C(=O)O)C3C(=O)N(c4ccccc4OC)C(=O)C23)c(OC)c1 (stereo unspecified)
→ -0.5 | 0.01
O=c1cccc2n1CC1CC2CN(c2nc(N3CCCC3)nc(N3CCCC3)n2)C1 (stereo unspecified)
→ / | 1.7
CC(NC(=O)c1ccccc1)C(=O)O (stereo unspecified)
→ -0.55 | 0.7
c1cc2c(cc1-c1nn3cnnc3s1)OCO2
→ -1.2 | 13
CCc1ccc(S(=O)(=O)Nc2cc3c4c(oc3c3ccccc23)CCC(C(C)(C)C)C4)cc1 (stereo unspecified)
→ / | 0.015
COCc1cc(C)nc2sc(C(=O)Nc3cc(Br)cc4cccnc34)c(N)c12
→ / | 0.25
O=C(Nc1ccc(N2S(=O)(=O)c3ccccc3S2(=O)=O)cc1)C1CCCCC1
→ / | -0.3
CN(C)/C=C1\C(=O)ON=C1c1ccccc1
→ / | -0.89
CC(=O)NCCS(=O)(=O)Cc1cc2cccc3c2n(c1=O)CCC3
→ / | 4.8
CCCN1CCCc2ccccc21
→ -1.1 | 4.3
C/C(=C\c1cccc([N+](=O)[O-])c1)[N+](=O)[O-]
→ / | -0.92
COc1cscc1C(=O)NNC(=O)OCc1ccc(F)cc1Cl
→ / | -0.2
COc1ccc(-c2ocnc2C(=O)N2CCN(C(=O)C(c3ccccc3)c3ccccc3)CC2)cc1
→ -0.15 | /
CN(C)C(=O)Oc1cccc(N)c1
→ -0.45 | 0.12
CCOc1cc2[nH]c(=O)n(CCC(=O)NCc3ccco3)c(=O)c2cc1OCC
→ -0.35 | 8.5
O=C(O)CCNc1ccc2c(c1)OCCO2
→ -0.35 | /
N#Cc1c(F)cccc1Sc1ccc(Cl)cc1
→ -0.2 | 0.13
O=C(O/N=C1\CCS(=O)(=O)c2sccc21)c1ccccc1C(F)(F)F
→ / | -0.34
O=C1CC(SCc2nc3ccccc3[nH]2)C(=O)N1c1ccc(Cl)cc1 (stereo unspecified)
→ -0.65 | 0.14
CSc1nnc(C2CC2)n1-c1cccc(Cl)c1
→ 1 | -0.34
COC(=O)c1ccc(/C=C(\C#N)C(N)=S)cc1
→ -0.95 | 0.085
COc1ccc(N2C(=O)C3C4c5ccccc5C(C=Nc5cccc(C)c5C)(c5ccccc54)C3C2=O)cc1 (stereo unspecified)
→ / | -0.095
COC(=O)c1ccccc1-c1ccc(/C=C2\SC(=O)NC2=O)o1
→ 0.05 | 6.2
COc1ccc2nc(NNC(=O)c3ccccc3)sc2c1
→ 1.8 | /
Cc1ccc(C)c(Cn2c(C)nc3c(sc(=S)n3-c3ccccc3)c2=O)c1
→ 1.6 | -1.3
CC(C)C(NC(=O)CCc1ccccc1)C(C)C
→ 0.15 | 0.6
CNc1nc(CC(C)=O)ns1
→ / | 0.36
